Screening data from PubChem BioAssay.
CHT block: inhibits the human high affinity choline transporter; Q9GZV3; CHT-expressing cells, membrane potential dye, choline response; active compounds read low; B-score at 10 µM; hit rate 0.86% among 310,000;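 active means B-score over 3 SD under the library average, and starting fluorescence ratio not unusually high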;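 further: choline stimulus applied at its EC90 after an EC20 pre-addition; B-score computed on integrated fluorescence ratio after choline addition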
Target sequence (Q9GZV3 whole entry, looked up): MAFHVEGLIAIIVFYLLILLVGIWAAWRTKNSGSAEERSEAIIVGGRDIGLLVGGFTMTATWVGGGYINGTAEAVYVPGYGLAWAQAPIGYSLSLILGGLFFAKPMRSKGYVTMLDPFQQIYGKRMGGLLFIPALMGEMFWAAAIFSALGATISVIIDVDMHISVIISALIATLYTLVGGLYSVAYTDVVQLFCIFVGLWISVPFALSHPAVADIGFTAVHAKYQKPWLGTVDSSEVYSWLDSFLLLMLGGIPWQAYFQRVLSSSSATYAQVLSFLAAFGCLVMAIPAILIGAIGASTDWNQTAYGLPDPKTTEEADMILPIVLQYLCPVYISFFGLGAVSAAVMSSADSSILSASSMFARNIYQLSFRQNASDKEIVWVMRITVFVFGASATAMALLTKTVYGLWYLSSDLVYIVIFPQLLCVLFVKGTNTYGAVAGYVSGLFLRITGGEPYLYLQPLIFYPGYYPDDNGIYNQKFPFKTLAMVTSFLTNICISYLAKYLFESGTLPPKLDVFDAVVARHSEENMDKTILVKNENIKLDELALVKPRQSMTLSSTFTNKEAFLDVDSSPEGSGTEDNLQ
Calls only; i = inactive. The list is partial; most or all hits stand in other tables.

CHT block | smiles
i | Cc1ccc(C)c(Cn2c(C(C)O)nc3ccccc32)c1 (centres undefined)
i | CCSc1ccc(/C(N)=N/OC(=O)c2cccs2)cn1
i | N#Cc1c2c(c(-c3ccco3)[nH]c1=O)CCCC2
i | CCCn1nc2cc(C(=O)NCc3ccccc3OC)ccc2c1OCC
i | COc1ccc(N(C(=O)CNC(=O)c2ccco2)C(C(=O)NC2CCCCC2)c2ccco2)cc1 (centres undefined)
i | CCn1c(C)nc2cc(C(=O)NNC(=O)CCC3CCCC3)ccc21
i | CC(C)c1ccc(NC(=O)CCNC(=O)Cn2cnc3ccccc3c2=O)cc1
i | CCn1c(SCc2ccccc2)nnc1C1CCN(S(=O)(=O)c2ccc(OC)cc2)CC1
i | Cc1ccc(S(=O)(=O)/N=C(/c2ccc(F)cc2)N2CCOCC2)cc1
i | CCn1c(SCC(=O)NC2CCCCC2)nnc1-c1cccnc1
i | COC(=O)C1C(c2ccc(OC)cc2)Nc2nnc(C(F)(F)F)n2C1(C)O (centres undefined)
i | Cc1cccc(OCCC(=O)Nc2ccc(F)c(F)c2)c1
i | Cc1ccccc1NS(=O)(=O)c1ccc(C(=O)N2CCCCCCC2)cc1
i | Cc1csc(NC(=O)CSc2nnc(-c3cccnc3)o2)n1
i | CCOc1ccccc1NC(=O)CSc1nnc(C2CC2)n1CC
i | COc1cc(C(=O)NCC(=O)N/N=C(/C)c2cccs2)cc(OC)c1OC
i | CCOC(=O)C1(Cc2ccccc2)CCN(Cc2ccc3c(c2)OCCO3)CC1
i | COc1ccc2c(c1)c(=O)oc1c(C)c(OCc3cc(C(=O)O)oc3C)ccc12
i | CC(C)CCCNc1nc(N2CCOCC2)nc(N2CCOCC2)n1
i | Cc1ccc(CNC(=O)/C=C/c2ccc(S(=O)(=O)N3CCOCC3)cc2)cc1
i | COc1ccc(CNCc2ccc3c(c2)OCO3)c(OC)c1OC
i | C#CCNC(=O)C1=C[C@@H](c2ccccc2)[C@H](CCCO)[C@@H](OCC)O1
i | CCCCCOC(=O)C1[C@H]2C(=O)N(Cc3cccs3)C[C@]23C=C[C@H]1O3 (some centres undefined)
i | COC(=O)c1ccc(C2CC(=O)Nc3cc(OC)c(OC)c(OC)c32)cc1 (centres undefined)
i | O=C(c1cc2cc(Br)ccc2oc1=O)N1CCN(c2ccccn2)CC1
i | O=C(Nc1nnc(S(=O)(=O)N2CCCC2)s1)c1ccccc1F
i | Cc1ccc(C)c(N2CCN(S(=O)(=O)c3ccc4c(c3)C(C)(C)C(=O)N4C)CC2)c1
i | O=C(CSc1nnc2ccccn12)NC(=O)Cc1ccccc1
i | Cc1nnc(SCC(=O)c2ccc(Br)cc2)s1
i | COc1ccccc1/C=C(\C#N)C(=O)Nc1ccc(S(N)(=O)=O)cc1
i | CCc1cc2c(SCC(=O)c3ccccc3)ncnc2s1
i | CCN(CC)C(=O)c1[nH]cnc1C(=O)N[C@@H](CCCCNC(=O)OC(C)(C)C)C(=O)OC(C)(C)C
i | COc1ccc(C(=O)C2CCCN(C3Cc4ccccc4C3)C2)cc1OC (centres undefined)
i | COc1cccc(NS(=O)(=O)c2ccc3c(c2)N(C(C)=O)CCO3)c1
i | CN1CCN(C(=O)c2cc3nc(-c4ccc(F)cc4)cc(C(F)(F)F)n3n2)CC1
i | Cc1ccc(CN(Cc2ccco2)C(=S)NCC(=O)NC2CC2)cc1
i | Cc1oc(C(C)(C)C)cc1C(N)=O
i | FC(F)Oc1ccccc1/C=N/Nc1nc2ccccc2o1
i | Cc1ccccc1NC(=O)Cn1nc(C(F)(F)F)cc1C1CC1
i | CN1CCN(C(=O)c2ccccc2NC(=O)COc2ccccc2Cl)CC1
i | O=C(Nc1cccnc1)c1cc(-c2ccc(Cl)cc2)on1
i | CC(C)C[C@H](NC(=O)NCc1ccccc1Cl)C(=O)O
i | COc1ccccc1NC(CC(=O)c1ccccc1)C(=O)OCC(=O)c1ccc(Br)cc1 (centres undefined)
i | COc1ccccc1NC(=O)COC(=O)c1ccccn1
i | CCc1ccccc1NC(=O)Nc1ccc2c(c1)OCO2
i | COCCNC(=O)c1ccccc1N(Cc1ccccc1)S(=O)(=O)c1ccc(C)cc1
i | O=C(Cc1ccc([N+](=O)[O-])cc1)N1CCN(c2ccc([N+](=O)[O-])cc2)CC1
i | CC1Cc2ccccc2N1C(=O)CSc1nnc(-c2ccccc2)c(-c2ccccc2)n1 (centres undefined)
i | O=C(NC1C(=O)NNC1c1ccccc1)c1ccc(F)cc1 (centres undefined)
i | Cc1sc(N/N=C/c2cccs2)nc1-c1ccccc1
i | O=Cc1ccc(C(=O)OCC(=O)Nc2ccc(F)cc2F)cc1
i | Cc1ccc(S(=O)(=O)N(CC(=O)NCC2CCCO2)Cc2ccc(F)cc2)cc1 (centres undefined)
i | COc1ccc(OCC(=O)Nc2ccc3nc(C)sc3c2)cc1
i | CC(=O)C1=C(C)N(Cc2ccccc2)C(=O)N[C@H]1c1cccc(C(F)(F)F)c1
i | CC(C)CC1C(C#N)=C(N)SC(N)=C1C#N
i | COc1ccc(/C=N/N2C(=O)C3C4C=CC(CC4)C3C2=O)c(OC)c1 (centres undefined)
i | CCOc1ccc(NCCC(=O)c2ccc3c(c2)OCO3)cc1
i | COc1ccc(C2C(C(C)=O)=C(O)C(=O)N2CCc2c[nH]c3ccccc23)cc1OC (centres undefined)
i | COCCNC(C(=O)Nc1ccc(C)cc1[N+](=O)[O-])c1ccccc1 (centres undefined)
i | Cc1ccc2c(c1)C(=O)CC(O)(C(F)F)O2 (centres undefined)

Next part.
CHT block | smiles
i | CCc1ccccc1N1C(=O)[C@@H]2Cc3ccccc3CN2C1=O
i | Cc1ccc(S(=O)(=O)NC(C)(C)C)cc1C(=O)OC(C)C(=O)NC1CC1 (centres undefined)
i | CNC(=O)CSc1nnc(-c2cccs2)o1
i | COc1ccc(-c2nc(C3CCCCC3)c3cc(OC)ccc3n2)cc1
i | COc1ccccc1-c1c(C(F)(F)F)oc2cc(OC(=O)c3ccccc3[N+](=O)[O-])ccc2c1=O
i | Cc1c(NC(=O)c2ccccc2NS(=O)(=O)c2ccc(Br)cc2)c(=O)n(-c2ccccc2)n1C
i | NC(=O)C1CCN(C(=O)c2ccc(-c3ccccc3)cc2)CC1
i | CC1CCN(CCCNC(=O)CCc2nnc3n(CCc4ccccc4)c(=O)c4ccccc4n23)CC1
i | Cc1nc(=O)cc(-c2ccccc2)n1-c1ccccc1
i | NC(=O)CN1C(=O)C(O)(CC(=O)/C=C\C=C\c2ccccc2)c2ccccc21 (centres undefined)
i | Cc1cc(NC(=O)CCC(=O)N(Cc2ccco2)C2(C(=O)NC3CCCC3)CCCCC2C)no1 (centres undefined)
i | CCCCOC(=O)c1ccc(NC(=O)CSc2nnnn2C)cc1
i | COc1ccc(C(CC(=O)O)NC(=O)COc2ccccc2)cc1 (centres undefined)
i | O=C(CSc1nc2ccccc2c(=O)n1CC1CCCO1)NCc1ccc2c(c1)OCO2 (centres undefined)
i | CC(=O)N(Cc1ccc(F)cc1)Cc1nc2ccccc2c(=O)[nH]1
i | CCOc1ccc(S(=O)(=O)N(CC(=O)NCC(F)(F)F)Cc2ccco2)cc1
i | CC(=O)N1CCc2cc(S(=O)(=O)CCC(=O)Nc3cccc(F)c3)ccc21
i | Cc1ccccc1C(=O)NC1CCS(=O)(=O)C1 (centres undefined)
i | O=C1/C(=C/c2ccco2)N=C(N2CCCCC2)N1c1ccccc1
i | O=C(Nc1ccsc1C(=O)NC1CC1)c1ccccc1
i | CC(C)CC(COCc1ccc(Cl)cc1)N1CCN(C(=O)c2cccc(C(F)(F)F)c2)CCC1=O (centres undefined)
i | CC(C)Cn1c2c(c(=O)[nH]c1=O)C(NS(=O)(=O)c1ccc(Cl)cc1)(C(F)(F)F)C(=O)N2 (centres undefined)
i | CCN(CC(=O)NCc1ccc(Cl)cc1)C(=O)CNS(=O)(=O)c1ccc(NC(C)=O)cc1
i | CCN(CC)c1cc(C(F)(F)F)nc(-c2ccccn2)n1
i | CCC(C)NCCOCCOc1ccc(Br)cc1C (centres undefined)
i | Cc1cccc(N2CCN(S(=O)(=O)c3ccc4c(c3)NC(=O)CO4)CC2)c1C
i | COC(=O)c1ccc(NC(=S)NCCc2cccc(C)c2)cc1
i | CN(C)S(=O)(=O)c1cccc(NC(=O)COC(=O)/C=C/c2ccco2)c1
i | Cc1csc(=O)n1CC(=O)OCC(=O)NNC(=O)c1ccc([N+](=O)[O-])cc1
i | Cc1cc(NC(=O)c2nn(C)c(C)c2Br)no1
i | CCc1ccc(NC(=O)Nc2ccsc2C(=O)OC)cc1
i | CCC(NS(=O)(=O)c1ccc2c(c1)Cc1cc(S(=O)(=O)NC(CC)C(=O)O)ccc1-2)C(=O)O (centres undefined)
i | Cc1ccc(Sc2ccc(NC(=O)CCl)cc2)c(C)c1
i | NC(=O)c1ccc(NC(=O)CS(=O)(=O)c2cn(CC(=O)N3CCCCC3)c3ccccc23)cc1
i | COc1ccc(NC(=O)CCCC2CCCCC2)cc1S(=O)(=O)N1CCCCC1
i | Cc1ccc(S(=O)(=O)C2(C(=O)O)CCCC2)cc1C
i | CCOc1ccc(CN2CCN(Cc3[nH]c4ccccc4c3C)CC2CCO)cc1 (centres undefined)
i | C=C1CCN([C@@H](Cc2ccccc2)C(=O)N2CCOCC2)S(=O)(=O)c2ccccc21
i | COc1ccc(OCC(=O)Nc2ccc3c(c2)nc(CN2CCN(C(C)=O)CC2)n3C)cc1
i | Cc1ccc(CCNC(=O)CN2C(=O)COc3ccc(S(=O)(=O)N4CCC(C)CC4)cc32)cc1
i | CCCCCn1c(C(C)NC(=O)CCC)nc2ccccc21 (centres undefined)
i | O=C(CN1CCOCC1)N/N=C/c1ccc(-c2cccc(Cl)c2Cl)o1
i | C=CCC1(CC=C)CCCN1C(=O)Cn1nnnc1CN(C)C(C)C
i | COC(=O)c1ccccc1Oc1ccc(NC(=O)C(C)(C)CCl)cc1
i | C1CCc2c(nc3nnnn3c2NC2CCCC2)C1
i | CN(C)C(=S)Nc1cccc(-c2n[nH]c(=S)o2)c1
i | O=S(=O)(c1ccc(Br)cc1)N1CCC2(CC1)OCCO2
i | CCn1c(=O)cc(OCC(=O)Nc2cc(C)ccn2)c2ccccc21
i | C/C(CCc1ccc2c(c1)OCO2)=N\N=C1\NC(=O)CC(C(=O)Nc2ccc(Cl)cc2)S1 (centres undefined)
i | CCC(C)[C@H]1COCCS(=O)(=O)N1Cc1ccccc1F (some centres undefined)
i | O=C(CCN1C(=O)C2C3C=CC(C4CC34)C2C1=O)OCC(=O)c1ccccc1 (centres undefined)
i | Cc1cc(C(F)(F)F)c2c(N)c(C(=O)Nc3cc(C)on3)sc2n1
i | Cc1c(C(=O)Nc2nnc(C3CC3)s2)oc2c(Cl)cccc12
i | CCCCn1c(/N=C/c2ccc3c(c2)OCO3)nc2ccccc21
i | Nc1nonc1-n1nnc(C(=O)N/N=C/c2ccc(F)cc2)c1-c1ccc2c(c1)OCO2
i | Cc1ccc2c(n1)CC(C)(C)C/C2=N\O
i | COc1ccc(C(=O)C2CCN(CC(=O)Nc3ccc(C)cc3)CC2)cc1
i | COc1cc2ncnc(NCc3ccc(Cl)cc3)c2cc1OC
i | COc1ccccc1C(=O)Nc1cccc2cccnc12
i | Cc1cccc(-n2c(-c3csc(C)c3C)n[nH]c2=S)c1

Looked up by compound from the entries so far (4):
CHT block | smiles
i | COc1ccccc1C(=O)Nc1cccc2cccnc12
i | CCc1ccc(NC(=O)Nc2ccsc2C(=O)OC)cc1
i | NC(=O)c1ccc(NC(=O)CS(=O)(=O)c2cn(CC(=O)N3CCCCC3)c3ccccc23)cc1
i | CCn1c(=O)cc(OCC(=O)Nc2cc(C)ccn2)c2ccccc21

(further entries)
CHT block | smiles
i | COc1ccc(/C=C2\SC(=S)N(CCC(=O)NC3=NCCS3)C2=O)cc1OC
i | CCn1c(C)cc(/C=C2\NC(=O)N(CC(=O)Nc3cccc(C)c3)C2=O)c1C
i | c1ccc(SCc2nc3ccccc3[nH]2)nc1
i | O=C(N/C=N/O)C(c1ccccc1)c1ncc(C(F)(F)F)cc1Cl (centres undefined)
i | O=S(=O)(c1ccc(F)cc1)c1nc(-c2ccco2)oc1Nc1ccc(F)cc1
i | COc1ccc(OC)c(C(=O)NC(CC(N)=O)c2ccc(NCCN3CCCC3)c([N+](=O)[O-])c2)c1 (centres undefined)
i | COc1ccc(C(C(=O)NC2CCCCC2)N(C(=O)c2ccccn2)c2cccnc2)cc1 (centres undefined)
i | CCc1ccc(OCC(=O)N2CC(C(N)=O)Oc3ccccc32)cc1 (centres undefined)
i | COc1cc(S(=O)(=O)Nc2cccnc2)ccc1F
i | Clc1ccc(OCc2nnc(-c3ccccc3Br)o2)cc1
i | COc1ccc(-n2c(=S)[nH]c3sc4c(c3c2=O)CCN(C)C4)cc1

In the list so far, these have an aryl thioether with sulfur outside any ring:
CHT block | smiles
i | CCSc1ccc(/C(N)=N/OC(=O)c2cccs2)cn1
i | CCn1c(SCc2ccccc2)nnc1C1CCN(S(=O)(=O)c2ccc(OC)cc2)CC1
i | CCn1c(SCC(=O)NC2CCCCC2)nnc1-c1cccnc1
i | Cc1csc(NC(=O)CSc2nnc(-c3cccnc3)o2)n1
i | CCOc1ccccc1NC(=O)CSc1nnc(C2CC2)n1CC
i | O=C(CSc1nnc2ccccn12)NC(=O)Cc1ccccc1
i | Cc1nnc(SCC(=O)c2ccc(Br)cc2)s1
i | CCc1cc2c(SCC(=O)c3ccccc3)ncnc2s1
i | CC1Cc2ccccc2N1C(=O)CSc1nnc(-c2ccccc2)c(-c2ccccc2)n1 (centres undefined)
i | CNC(=O)CSc1nnc(-c2cccs2)o1
i | CCCCOC(=O)c1ccc(NC(=O)CSc2nnnn2C)cc1
i | O=C(CSc1nc2ccccc2c(=O)n1CC1CCCO1)NCc1ccc2c(c1)OCO2 (centres undefined)
i | Cc1ccc(Sc2ccc(NC(=O)CCl)cc2)c(C)c1
i | c1ccc(SCc2nc3ccccc3[nH]2)nc1
